# Screening data from PubChem.
# D2 PAM = positive allosteric modulators of human D2 dopamine receptor | DiscoveRx D2 beta-arrestin cells, luminescence, 90 min; 100% = 57 uM dopamine signal | P14416 | AID 624464 | potentiation, % (concentration not given with the values) | hit rate 0.23% among 360,000; active = potentiation of 50% or more; inconclusive = 30% to 50%; inactive = 30% or less;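 also: compound concentration not given in the record; tested on top of an EC20 dose of dopamine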
# Target sequence (P14416 whole entry, looked up): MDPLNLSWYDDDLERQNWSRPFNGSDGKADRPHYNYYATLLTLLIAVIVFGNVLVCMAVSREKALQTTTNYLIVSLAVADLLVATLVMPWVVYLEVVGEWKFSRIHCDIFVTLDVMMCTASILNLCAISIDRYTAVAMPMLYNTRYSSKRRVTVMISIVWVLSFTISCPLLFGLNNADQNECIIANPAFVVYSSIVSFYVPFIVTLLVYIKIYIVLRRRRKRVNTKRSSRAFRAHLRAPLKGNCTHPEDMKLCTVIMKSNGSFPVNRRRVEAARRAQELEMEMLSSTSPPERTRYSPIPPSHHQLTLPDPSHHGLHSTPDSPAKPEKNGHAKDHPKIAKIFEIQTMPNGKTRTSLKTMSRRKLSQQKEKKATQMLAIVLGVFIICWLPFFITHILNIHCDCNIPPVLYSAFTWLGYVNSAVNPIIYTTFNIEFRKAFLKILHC
#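 D2 cells co-treated with compound plus 50 nM dopamine (EC20) for 90 min at 37 deg C to detect potentiation. Beta-arrestin recruitment was read as enzyme-fragment luminescence after 1 h at ambient temperature. Full response was set by 57 uM dopamine.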
# TRPV1 potentiator = enhances activation of the human vanilloid receptor TRPV1; Q8NER1; TRPV1-expressing cells, Fluo-8 calcium influx, capsaicin EC20 potentiation; host cell line not named in the record; control for the full effect not named in the record; potentiation, % at 8.33 µM; hit rate 0.02% among 320,000; active means potentiation above 80%; inconclusive means 30% to 80%; inactive means below 30%; also: 0% is about no effect
#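 Cells expressing TRPV1 were dye-loaded with Fluo-8 and read kinetically: 10 s baseline, 3 min after compound (agonist portion), then 2 min after EC20 capsaicin (allosteric enhancer portion). Calcium-bound dye fluorescence at 480/520 nm.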
# CtBP-E1A blk = inhibitors of CtBP/E1A interaction; AlphaScreen GST-E1A/His-CtBP binding, 1536-well; stronger effect = lower value; control for the full effect not named in the record; activity change, % (concentration not given with the values); hit rate 0.49% among 340,000; in the data active means activity change below about -65%; inconclusive means about -30% to -65%; inactive means above about -30%; also: % is scaled to controls: 0 for no effect and ±100 for the full control effect
#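 In 5 uL wells, 23 nL compound meets equimolar GST-E1A and His-CtBP (5X stock 125 nM each) for 2 h, 37 °C. Beads (5X, 50 ug/mL) then 1 h, 37 °C, dark.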
# Six1-Eya2 blk = blocks human Six1 binding to Eya2. hit rate 0.56% among 360,000. AlphaScreen GST-Six1/His-Eya2 binding, biochemical; stronger effect = lower value; control for the full effect not named in the record. activity change, % (test concentration not listed). Q15475+O00167; in the data active = activity change below about -65%; inconclusive = about -30% to -65%; inactive = above about -30%; also: % is scaled to controls: 0 for no effect and ±100 for the full control effect; compound concentration not given in the record
#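 Compounds are tested against tagged Six1 and Eya2 proteins bridged by glutathione donor and nickel acceptor beads; after a one-hour incubation at 37 °C without light, AlphaScreen emission is recorded.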
# TRPML1 blocker = human mucolipin-1 channel inhibition | TRPML1-inducible cells, Ca2+ dye fluorescence, FDSS; stronger effect = lower value; inhibition of EC80 agonist-evoked calcium signal | activity change, negative = inhibition, % (concentration not given with the values) | hit rate 0.02% among 390,000 | AID 624415; in the data active means activity change below about -50%; inconclusive means about -30% to -50%; inactive means above about -30%;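 also: stimulus is agonist 54-4 at its EC80 concentration; % is scaled to controls: 0 for no effect and ±100 for the full control effect; compound concentration not given in the record; the text of the record puts the active cut at -80%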
# Target sequence (Q9GZU1 whole entry, looked up): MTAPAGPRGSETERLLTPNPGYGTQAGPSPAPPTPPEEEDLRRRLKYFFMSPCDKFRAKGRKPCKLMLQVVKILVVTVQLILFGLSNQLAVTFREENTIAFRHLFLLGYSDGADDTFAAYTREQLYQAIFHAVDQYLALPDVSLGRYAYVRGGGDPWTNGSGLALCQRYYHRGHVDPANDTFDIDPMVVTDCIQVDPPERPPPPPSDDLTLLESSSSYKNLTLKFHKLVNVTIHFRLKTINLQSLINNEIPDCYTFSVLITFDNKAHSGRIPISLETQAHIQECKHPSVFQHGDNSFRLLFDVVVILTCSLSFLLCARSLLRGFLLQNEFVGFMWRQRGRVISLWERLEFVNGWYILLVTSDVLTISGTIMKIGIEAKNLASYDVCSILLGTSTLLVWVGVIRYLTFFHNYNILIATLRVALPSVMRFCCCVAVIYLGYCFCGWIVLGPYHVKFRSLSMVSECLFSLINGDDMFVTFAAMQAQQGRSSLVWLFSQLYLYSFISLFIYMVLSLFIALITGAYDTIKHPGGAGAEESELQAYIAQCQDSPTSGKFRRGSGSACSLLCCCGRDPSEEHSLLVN
#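 Calcium fluorescence in TRPML1-DL cells induced overnight with Tet: a 110 s read after compound pin addition, then a 110 s antagonist read after challenge with 54-4 at 4 uM final (EC80).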
# TRPML1 agonist = agonists of human TRPML1 channel; TRPML1-expressing cells, Ca2+ dye fluorescence, FDSS; host cell line not named in the record; reference of the full effect not given here; activation, % (concentration not given with the values); hit rate 0.12% among 410,000; AID 624414; in the data active = activation above about 50%; inconclusive = about 30% to 50%; inactive = below about 30%; also: 0% is about no effect; the text of the record puts the active cut at 80%
#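 Calcium fluorescence on an FDSS kinetic reader gave the read-out. Tet-induced TRPML1-DL cells were plated overnight, dye-loaded (Ca8 with quencher, 45-90 min, room temperature, dark), then read 110 s after compound addition, and again 110 s after 4uM final 54-4 (EC80).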
# * = called active by the depositor; ? = inconclusive; . = no result given; & = joins results of further samples.
molecule,D2 PAM,TRPV1 potentiator,CtBP-E1A blk,Six1-Eya2 blk,TRPML1 blocker,TRPML1 agonist
COc1ccc(-c2cc(C(=O)Nc3cccnc3Cl)no2)cc1,3,-8,10,5,-12,-0.2
Cc1ccc(NC(=O)c2ccccc2SCC(=O)N2CCCC2)cc1S(=O)(=O)N(C)C,7,10,0,-2,3,-0.6
Cc1cc(C)c(C(=O)CSc2nc(C)cc(C)c2C(N)=O)c(C)c1,-1,-2,0,1,-5,0.0
CCC(=O)Nc1c(S(=O)(=O)c2ccccc2)c2nc3ccccc3nc2n1Cc1ccccc1,2,-4,-23,-10,6,1.9
COC(=O)[C@]12CCCCC=C1N(Cc1ccc(Cl)cc1Cl)C(=O)[C@H](CC(=O)N1CCOCC1)C2,.,.,-21,4,.,-0.2
CCc1ccc(S(=O)(=O)/N=C2\C=C(Nc3ccc(C(=O)O)cc3)C(=O)c3ccccc32)cc1,-21,16,?,-30,22,2.8
CCOc1ccc(-c2nc3n(c(=O)c2C#N)CCS3)cc1,-9,9,4,3,-13,0.3
O=C(O)c1cc(N2C(=O)C3C4C=CC(C4)C3C2=O)ccc1N1CCOCC1 (configuration not stated),0,-7,-5,6,10,0.2
Cn1cnc(S(=O)(=O)NCc2ccc(Br)cc2)c1,-10,-1,-3,-1,18,-0.1
Cn1c(SCCCC(=O)c2ccc(F)cc2)nnc1-c1ccncc1,1,8,4,7,-6,-0.6
O=C1CC(N(CCc2ccccc2)C(=S)Nc2ccccc2)C(=O)N1c1ccc(Br)cc1 (configuration not stated),-12,-7,13,-3,17,0.2
COC(=O)c1ccc(N=c2sc(C(=O)OC)cc(=O)n2C)cc1,-1,1,4,5,-14,-0.3
O=C(CCn1c(=O)oc2ccccc21)NCCC1=CCCCC1,-9,-1,7,8,-3,-0.5
COc1ccc(S(=O)(=O)Nc2cc(C)ccc2OC)cc1C,-7,9,5,4,60,0.7
CCC(=O)c1ccc(OCC(=O)OCC(=O)NC2CCCCCC2)cc1,-14,-9,3,0,-14,1.3
CC(C(=O)NC1CCCCC1)N1CCN(C)CC1 (configuration not stated),-13,-4,7,1,.,.
CCOC(=O)c1sc2nc(CC(=O)OC)nc(N(C)CCc3ccccn3)c2c1C,-8,-13,0,-1,12,1.6
S=C(NC1CCCCC1)NN1CCCCCC1,-13,.,-6,-11,3,-0.6
O=C(N/C(=C\c1ccccc1)C(=O)N1CCOCC1)c1ccco1,-4,11,25,11,-15,-0.3
C=CCC(NCc1ccccc1)c1ccc(C)o1 (configuration not stated),-6,.,-3,-1,7,-1.3

# Next part
molecule,D2 PAM,TRPV1 potentiator,CtBP-E1A blk,Six1-Eya2 blk,TRPML1 blocker,TRPML1 agonist
COCCN(C(=O)C1CC1)c1nnc(-c2ccc(C)cc2)s1,-9,-16,10,-2,8,-0.4
O=C(COC(=O)c1ccc2ncsc2c1)NCc1cccc(Cl)c1,-6,-6,-15,0,4,1.1
S=C(Nc1ccccc1Cl)N1CCC(c2ccccc2)C1 (configuration not stated),2,0,-2,6,1,0.8
CCN(Cc1ccc(OC)c(F)c1)C(=O)/C=C/c1ccc(S(=O)(=O)N2CCOCC2)cc1,-7,2,.,0,53,0.5
O=S(=O)(c1cccc(-c2cn3ccccc3n2)c1)N1CCCCC1,-6,-19,-25,-19,-3,-1.7
COc1cc(OC)c(OC)cc1/C=C/c1ccnc2ccccc12,10,.,-25,-26,-2,2.9&-0.3
O=C(NCc1ccc(Cl)cc1)C1CCCN(C(=O)c2ccc(Cl)cc2)C1 (configuration not stated),-1,-24,.,-1,3,0.5
CC(C)(C)OC(=O)C[C@@H]1C/C=C\C[C@@H](CC(=O)N[C@H](CO)Cc2ccccc2)C(=O)NCCOC1=O,.,.,8,1,2,-0.7
CCCCNC(=O)CN(c1cccc(F)c1)S(C)(=O)=O,4,7,0,2,24,0.6
Cc1ccc(NC(=O)C(C)OC(=O)c2n[nH]c3ccccc23)cc1 (configuration not stated),-15,27,-20,5,1,0.5
COc1cc(NC(=O)CN2CCN(CC(=O)Nc3ccccc3OC)CC2)cc(OC)c1,-16,0,0,3,4,-0.2
CCOc1cccc(C(c2c(C)n(C)n(-c3ccccc3)c2=O)c2c(C)n(C)n(-c3ccccc3)c2=O)c1OC,-8,5,.,-1,-4&7,1.3&-0.5
O=C(NC(=S)Nc1ccccn1)c1cncc(Br)c1,-3,-2,-13,-9,11,0.9
CCOC(=O)/C(C#N)=N/Nc1ccccc1C#N,-12,-5,-10,-5,27,0.1
O=C(Cn1c(C(F)(F)F)nc2ccccc21)N/N=C/c1ccco1,2,-2,0,0,26,2.7
Cc1nn(-c2ccccc2)c(N2CCCC2)c1/C=N/NC(=O)c1ccccc1O,-18,2,?,?,-15,-0.7
Cc1ccc(-c2nn(-c3ccccc3)cc2C2CC(c3cccs3)=NN2C(=O)CCC(=O)O)cc1 (configuration not stated),-29,-26,2,1,-12,0.1
CC(=O)c1ccc([N+](=O)[O-])cc1,-6,-2,-10,11,8,0.3
CC(C)(C)CN1CCC(Oc2cccc(C(=O)NCCCOc3cccnc3)c2)CC1,-15,-7,2,-1,-2,-0.6
COc1cc(C2CC(C(F)(F)F)n3ncc(C(=O)O)c3N2)cc(OC)c1OC (configuration not stated),-6,-1,4,2,-1,-0.3

# Later entries.
mol	D2 PAM	TRPV1 potentiator	CtBP-E1A blk	Six1-Eya2 blk	TRPML1 blocker	TRPML1 agonist
CCc1ccc(NS(=O)(=O)c2ccc3[nH]cc(C(=O)N4CCCCC4)c(=O)c3c2)cc1	0	-8	-2	-1	-15	-0.4
CCCC(C)c1nnc(NC(=O)c2cc(C(=O)OC)cc([N+](=O)[O-])c2)s1 (configuration not stated)	-16	-7	-7	-4	2	0.4
Cc1ccc(-n2c3c(c(=O)[nH]c2=O)C(NS(=O)(=O)c2ccc(C)cc2)(C(F)(F)F)C(=O)N3)cc1 (configuration not stated)	1	0	2	2	-10&-3	-0.1&-0.2
CC(C)N(NC(=O)c1cccc2ccccc12)C(C)C	-1	0	2	4	-6	1.5
C/C(=N\NC1=NCCN1)c1ccccc1	-12	5	5	12	7	0.3
N#Cc1cc(Sc2ccccn2)c([N+](=O)[O-])cc1C#N	7	-3	1	-2	-2	-0.3
CC[C@H](C)[C@H](NC(=O)CNC(=O)COc1cc2c(c3oc(=O)cc(C)c13)CCC(C)(C)O2)C(=O)O	1	10	.	-23	-6	0.0
CN(C)CCCn1cnc2c(c1=N)C(c1ccccc1)c1ccc3ccccc3c1O2 (configuration not stated)	-43	3	.	-1	-3	-0.2
O/N=C\c1cnc(N2CCN(c3ccccc3)CC2)s1	-9	-4	.	-9	-7	2.6
COC(=O)c1cccc(C(=O)N2CCCC(C(=O)c3cc(F)ccc3F)C2)c1 (configuration not stated)	3	10	6	-3	11	-0.3
CCOC(=O)C1=C(C)NC(=O)NC1c1ccc(OC(=O)c2ccco2)c(OC)c1 (configuration not stated)	-6	12	7	-1	-3	-0.1
CCOc1ccc(NC(=O)C2CCCN(c3c(CC)c(C)nc4ncnn34)C2)cc1 (configuration not stated)	0	19	5	20	11	-0.2
Cc1ccc(NC(=O)c2c([N+](=O)[O-])c(C(C)(C)C)nn2C)c(C)c1	0	-20	0	0	1	-0.6
CC(=O)NS(=O)(=O)c1ccc(NC(=O)CCC(=O)Oc2ccc(C)cc2)cc1	-9	14	14	2	-13	0.5
c1ccc2c(c1)oc1c(N3CCOCC3)ncnc12	-16	-9	-1	2	3	-0.7
COc1ccc(-c2nc(CC(=O)O)cs2)cc1	-15	-5	-4	-1	-11	-0.9
O=C(/C=C/c1ccc(Cl)c([N+](=O)[O-])c1)Nc1cccnc1	-8	-2	-12	-9	7	0.2
O=C(CCNC(=O)N1CCn2c1nc1ccccc12)NCc1ccccc1	-3	0	.	6	-8	3.0
CC(C)NC(=O)N1CC(c2ccccc2)C(c2ccc(Cl)cc2)=N1 (configuration not stated)	-16	-6	.	10	.	.
O=C(Nc1cc(Cl)ccc1Oc1ccccc1)c1cnccn1	-13	-25	4	-1	6	-0.7

# Other records follow:
mol	D2 PAM	TRPV1 potentiator	CtBP-E1A blk	Six1-Eya2 blk	TRPML1 blocker	TRPML1 agonist
C(=N\c1nc2ccccc2n1CCN1CCCCC1)/c1ccc2c(c1)OCO2	3	8	-8	1	1	0.6
Cn1c(SCC(=O)c2ccc(O)c(O)c2)nnc1-c1cccs1	-6	-10	-8	-6	12	0.1
CCS(=O)(=O)N1CCC(C(=O)NCCc2ccc(OC)c(OC)c2)CC1	-7	-2	0	-6	-10	1.0
CCCCOc1ccc(Cc2c(O)nc(SC)[nH]c2=O)cc1	4	-18	-2	-2	5	-0.6
CCn1nc(CC(=O)Nc2nnc(CC(=O)N3CCCC3)s2)c2ccccc2c1=O	11	-4	1	4	1	0.2
CC1(C(=O)Nc2ccccc2F)CCN1C(=O)Cc1ccc(-c2ccccc2)cc1 (configuration not stated)	-3	.	-9	8	.	0.1
COCCNC(=O)C1(C)CCCN(C(=O)c2cc(OC)c(OC)c(OC)c2)C1 (configuration not stated)	-11	.	6	2	7	0.4
COc1cccc(NC(=O)COc2cc(O)c3c(c2)OC(C)(C)CC3=O)c1	-21	-16	0	-5	.	.
CCC/C(O)=C1\C(=O)CC(c2ccccc2)CC1=NC(C)C(=O)O (configuration not stated)	-9	5	11	2	10	-0.3
O=C(OCc1cncs1)c1ccccc1Cl	4	-10	12	14	-7	0.8
COc1ccc(N=C2SC(CC(=O)Nc3ccc(OC)cc3OC)C(=O)N2C)cc1 (configuration not stated)	-15	0	-2	-7	15	0.1
O=C(CCN1CCCCC1)Nn1c(=S)[nH]c2ccccc2c1=O	-10	17	-13	0	-11	-0.3
O=C(NCc1cccnc1)C1CCN(S(=O)(=O)N2CCC3(CC2)OCCO3)CC1	-13	.	13	4	-1	-0.5
Cn1ccc2c(N3CCOCC3)cc3c(c21)C1CCC3O1 (configuration not stated)	-4	.	-4	1	6	0.4
O=C(Nc1nc2c(Br)cc(Br)cc2c(=O)s1)c1ccco1	-6	4	-2	4	-11	0.8

# Gathered by group, those above with a cyano group
mol	D2 PAM	TRPV1 potentiator	CtBP-E1A blk	Six1-Eya2 blk	TRPML1 blocker	TRPML1 agonist
CCOc1ccc(-c2nc3n(c(=O)c2C#N)CCS3)cc1	-9	9	4	3	-13	0.3
CCOC(=O)/C(C#N)=N/Nc1ccccc1C#N	-12	-5	-10	-5	27	0.1
N#Cc1cc(Sc2ccccn2)c([N+](=O)[O-])cc1C#N	7	-3	1	-2	-2	-0.3
